HCMV UL50-53 inh: cytomegalovirus nuclear egress complex inhibition; HTRF UL50-UL53 interaction, normalized percent inhibition; inhibition, % (no concentration beside the values); 190,000 compounds, 0.15% hits; AID 1918969;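 active means both replicates at 50% or more, plus weaker picks with an unusually low signal ratio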;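 further: stock transfer was 100 nL into about 20 µL; 0% = negative control wells and 100% = wells with untagged competitor protein; inactives centre near -12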
* marks the source's active call; other numbers are inactive results; & = joins results of further samples. Only part of the results is shown, so the mix of outcomes need not match the whole.

SMILES | HCMV UL50-53 inh
O=C(CCc1ccc(O)cc1)c1c(O)cc(O)cc1OC1OC(CO)C(O)C(O)C1O (configuration not stated) | 9
CCC(C)C(=O)Nc1c(C(=O)OC)n(CC2CCCO2)c2ncc(NC3CCSC3)cc12 (configuration not stated) | -16
O=C(NCCN1CCOCC1)c1cc(-c2ccccc2)cc(S(=O)(=O)N2CCSCC2)c1 | -2
Cc1ccc(S(=O)(=O)/N=C(/N)c2ccccc2)cc1 | -4
COc1cccc2c(=O)n(C(C)Cn3cccn3)cnc12 (configuration not stated) | -13&-13
COc1ccc(NC(=O)CSc2nnc3ccccn23)cc1 | 4
COC(=O)c1c(NC(=O)Cc2ccccc2)c2cc(NCc3nccs3)cnc2n1CC(C)C | -27
O=C1CN(C(=O)COc2ccccc2)CCN1 | -2
CS(=O)(=O)Nc1cc(Br)c(O)c(Br)c1 | -10
CCC(=O)OCC(=O)C1(OC(=O)CC)[C@H](C)C[C@H]2[C@H]3[C@H]([C@@H](O)C[C@@]21C)[C@@]1(C)C=CC(=O)C=C1C[C@H]3Cl (some centres not stated) | -14
CC(C)[C@H](CO)Nc1nc(Nc2ccc(C(=O)O)c(Cl)c2)c2ncn(C(C)C)c2n1 | -3
CN1CC(=O)N2C(c3ccc4c(c3)OCO4)c3[nH]c4ccccc4c3C[C@@H]2C1=O (some centres not stated) | -10
CCCCC/C=C\C/C=C\C/C=C\C/C=C\CCCC(=O)O[C@@H](CO)COC(=O)CCCCCCCCCCCCCCCCC | -10
CS(=O)(=O)c1cc2ccccc2nc1N | -14
Cn1cc(-c2[nH]c3cc(NC(=O)C(N)C4CCCCC4)cc4c3c2C=NNC4=O)cn1 (configuration not stated) | -124
CC(C)C(=O)N1CCC(CNC(=O)c2ccno2)CC1 | -10&-10
Clc1ccc(-c2cn3c(n2)CCC3)cc1Cl | -12
Cc1ccn2cc(-c3cccc(NS(C)(=O)=O)c3)nc2c1 | -6
COC(=O)c1ccc(/C=[N+](\[O-])c2ccccc2)cc1 | -62&-27
Cc1ccc(/C=C2\SC(=S)N(C3CCS(=O)(=O)C3)C2=O)cc1 (configuration not stated) | -11
Cc1ccccc1N=C(N)Nc1ccccc1C | 10
COc1ccc(-c2nc(N)nc(Nc3ccc(C)cc3)n2)cc1F | 2
O=C(CCc1ccccc1)Nc1nnc(SCC(=O)N2CCCCCC2)s1 | -21
CC1CN(CC(O)COc2ccccc2C(C)C)CC(C)O1 (configuration not stated) | -3
O=C(c1ccccc1)c1ccc(NC(=O)c2cccs2)cc1 | -9
CN(C)Cc1cn(C2CCN(C(=O)C3CCCCCC3)CC2)nn1 | -16
CCCC(=O)NCc1nc2ccccc2n1C | -2
O=C(NCc1ccc2[nH]c3c(c2c1)CCCC3)C1CCCC1 | -8
O=C(CBr)Nc1nnc(-c2ccc(Cl)cc2)s1 | -8
Cc1c(O)c(CN2CCOCC2)cc2c(-c3ccccc3)cc(=O)oc12 | -40
O=C(O)CC1SC(=Nc2ccccc2)N(c2ccccc2)C1=O (configuration not stated) | -2
CCc1nc2ccccc2n1CC(=O)N(c1ccccc1)C(C)C | -11
CCCC(=O)Nc1sccc1C#N | -6
CCc1cc(C(C)=O)c(O)cc1OCCCCCC(C)(C)c1nn[nH]n1 | -2
Cn1c(CC(C)(C)C)nc2ccccc21 | -1
NC(=O)c1ccsc1NC(=O)c1ccc(Br)s1 | -2
CCCCC/C=C\C=C\C(O)CCCCCCCC(=O)OC[C@@H](COC(=O)CCCCCCC/C=C\C=C\C(O)CCCCC)OC(=O)CCCCCCC/C=C\C=C\C(O)CCCCC (some centres not stated) | 2&2
Cn1cccc1Cc1nnc(SCC(=O)N2CCCCC2)n1-c1ccc(F)cc1 | -16
O=C(NCCc1ccco1)c1cc(C2CC2)[nH]n1 | -7&-7
O=C(O)CCC/C=C\C[C@@H]1[C@@H](/C=C/[C@H](O)COc2cccc(C(F)(F)F)c2)[C@H](O)C[C@@H]1O | -10&-10
CN1CCN(C2CCCCCC2)CC1CCO (configuration not stated) | -6
CCOC(=O)N1CCN(CC(O)COCCC23CC4CC(CC(C4)C2)C3)CC1 (configuration not stated) | -4
COc1ccc(-c2[nH]ncc2-c2ccccc2)c(O)c1 | 4
Cc1cc(-c2nnc(SCC(=O)c3ccccc3Cl)n2C)no1 | 24
CC(=O)N1CCc2c(sc(NC(=O)Cc3ccccc3)c2C#N)C1 | -16
COc1ccc(-c2n[nH]c(C)c2-c2ccccc2)c(O)c1C | -8
CCCCCC(=O)CC[C@@H]1[C@@H](C/C=C\CCCC(=O)O)[C@@H](O)C[C@H]1O | -10&-10
O=C1NCCN(C(=O)c2ccc(Cl)c(F)c2)C1Cc1ccccc1 (configuration not stated) | 0

Some of the entries so far, in markdown.
| structure | HCMV UL50-53 inh |
| --- | --- |
| Cn1cc(-c2[nH]c3cc(NC(=O)C(N)C4CCCCC4)cc4c3c2C=NNC4=O)cn1 (configuration not stated) | -124 |
| CC(C)C(=O)N1CCC(CNC(=O)c2ccno2)CC1 | -10&-10 |
| Clc1ccc(-c2cn3c(n2)CCC3)cc1Cl | -12 |
| Cc1ccn2cc(-c3cccc(NS(C)(=O)=O)c3)nc2c1 | -6 |
| COC(=O)c1ccc(/C=[N+](\[O-])c2ccccc2)cc1 | -62&-27 |
| Cc1ccc(/C=C2\SC(=S)N(C3CCS(=O)(=O)C3)C2=O)cc1 (configuration not stated) | -11 |
| Cc1ccccc1N=C(N)Nc1ccccc1C | 10 |
| COc1ccc(-c2nc(N)nc(Nc3ccc(C)cc3)n2)cc1F | 2 |
| O=C(CCc1ccccc1)Nc1nnc(SCC(=O)N2CCCCCC2)s1 | -21 |
| CC1CN(CC(O)COc2ccccc2C(C)C)CC(C)O1 (configuration not stated) | -3 |
| O=C(c1ccccc1)c1ccc(NC(=O)c2cccs2)cc1 | -9 |
| CN(C)Cc1cn(C2CCN(C(=O)C3CCCCCC3)CC2)nn1 | -16 |
| CCCC(=O)NCc1nc2ccccc2n1C | -2 |
| O=C(NCc1ccc2[nH]c3c(c2c1)CCCC3)C1CCCC1 | -8 |
| O=C(CBr)Nc1nnc(-c2ccc(Cl)cc2)s1 | -8 |
| Cc1c(O)c(CN2CCOCC2)cc2c(-c3ccccc3)cc(=O)oc12 | -40 |
| O=C(O)CC1SC(=Nc2ccccc2)N(c2ccccc2)C1=O (configuration not stated) | -2 |
| CCc1nc2ccccc2n1CC(=O)N(c1ccccc1)C(C)C | -11 |
| CCCC(=O)Nc1sccc1C#N | -6 |
| CCc1cc(C(C)=O)c(O)cc1OCCCCCC(C)(C)c1nn[nH]n1 | -2 |
| Cn1c(CC(C)(C)C)nc2ccccc21 | -1 |
| NC(=O)c1ccsc1NC(=O)c1ccc(Br)s1 | -2 |
| CCCCC/C=C\C=C\C(O)CCCCCCCC(=O)OC[C@@H](COC(=O)CCCCCCC/C=C\C=C\C(O)CCCCC)OC(=O)CCCCCCC/C=C\C=C\C(O)CCCCC (some centres not stated) | 2&2 |
| Cn1cccc1Cc1nnc(SCC(=O)N2CCCCC2)n1-c1ccc(F)cc1 | -16 |
| O=C(NCCc1ccco1)c1cc(C2CC2)[nH]n1 | -7&-7 |
| O=C(O)CCC/C=C\C[C@@H]1[C@@H](/C=C/[C@H](O)COc2cccc(C(F)(F)F)c2)[C@H](O)C[C@@H]1O | -10&-10 |
| CN1CCN(C2CCCCCC2)CC1CCO (configuration not stated) | -6 |
| CCOC(=O)N1CCN(CC(O)COCCC23CC4CC(CC(C4)C2)C3)CC1 (configuration not stated) | -4 |
| COc1ccc(-c2[nH]ncc2-c2ccccc2)c(O)c1 | 4 |
| Cc1cc(-c2nnc(SCC(=O)c3ccccc3Cl)n2C)no1 | 24 |
| CC(=O)N1CCc2c(sc(NC(=O)Cc3ccccc3)c2C#N)C1 | -16 |

(cont.)
SMILES | HCMV UL50-53 inh
Cc1ccccc1NC(=O)CSc1ccccc1C(=O)O | -18
CC(=O)SC1CC2=CC(=O)CC[C@]2(C)[C@@H]2CC[C@@]3(C)[C@@H](CC[C@]34CCC(=O)O4)[C@H]12 (some centres not stated) | 8
CO[C@H]1CC(O[C@@H]2/C(C)=C/C[C@@H]3C[C@@H](C[C@]4(C=C[C@H](C)[C@@H](C5CCCCC5)O4)O3)OC(=O)[C@@H]3C=C(C)[C@@H](O)[C@H]4OC/C(=C\C=C\[C@@H]2C)[C@]43O)O[C@@H](C)C1O[C@H]1C[C@H](OC)[C@@H](O)[C@H](C)O1 (some centres not stated) | -48
CC1CCCN(CC(O)COCCC23CC4CC(CC(C4)C2)C3)C1 (configuration not stated) | -2
c1ccc(-c2nc3c(cnn3C3CCCCC3)[nH]2)c(Cn2cccn2)c1 | -9
CCSc1nnc(-c2c[nH]c3ccccc23)n1-c1ccc(OC)cc1 | -16
CC(C)c1cc(NCCN(C)C)n2c(nc3ccccc32)c1C#N | -2
Cc1cccn2cc(-c3cccc(NC(=O)CCC(=O)O)c3)nc12 | -7
O=C(O)c1c(Sc2ccccc2)c2cc(Cl)ccc2n1Cc1ccc(Cl)cc1 | -83
COc1cc(C(C)=O)ccc1OCCCN1CCC(c2noc3cc(F)ccc23)CC1 | 0&1
C[C@]12CC[C@H]3c4ccc(O)cc4CC[C@H]3[C@@H]1CCC2OC(=O)CCC1CCCC1 (some centres not stated) | -5
COC(=O)CNc1ccccc1C(=O)O | -23
CN(Cc1ccccc1)C(=O)c1sc2ccccc2c1Cl | -14
CCOC(=O)c1ccc(NC(=O)CSc2cn(C)c3ccccc23)cc1 | -3
CC(=O)Nc1ccc(S(=O)(=O)N2CCN=C2SCc2ccc(C)cc2)cc1 | 4
CC1CCCN(C(=O)CSCC(=O)N=c2sc3ccccc3n2C)C1 (configuration not stated) | -9
CCOc1ccc(-n2nnnc2-c2ccccn2)cc1 | 7
O=C(CSc1nnc(-c2cccs2)o1)NC1CCCCC1 | 4
Cc1ccc(C2=CC(=O)C=CC2=O)cc1C | -8&-10
N#Cc1c(-c2ccccc2)noc1/C=C/Nc1ccccc1 | -6
CS(=O)(=O)CCNCc1nc(-c2ccc3ncnc(Nc4ccc(OCc5cccc(F)c5)c(Cl)c4)c3c2)cs1 | -7
COc1cc(N2CCN(C)CC2)ccc1Nc1nccc(-c2cn(C)c3cnccc23)n1 | 5
NS(=O)(=O)c1cc(C(=O)Nc2cccc(C(F)(F)F)c2)ccc1F | -2
CC[C@@H](C(=O)[C@@H](C)[C@@H](O)[C@H](C)CCc1ccc(C)c(O)c1C(=O)O)[C@H]1O[C@](CC)([C@H]2CC[C@](O)(CC)[C@H](C)O2)C[C@@H]1C | -20

Some of the entries above, set out differently:
structure: CC1CCCN(C(=O)CSCC(=O)N=c2sc3ccccc3n2C)C1 (configuration not stated)
  HCMV UL50-53 inh = -9

structure: CCOc1ccc(-n2nnnc2-c2ccccn2)cc1
  HCMV UL50-53 inh = 7

structure: O=C(CSc1nnc(-c2cccs2)o1)NC1CCCCC1
  HCMV UL50-53 inh = 4

structure: Cc1ccc(C2=CC(=O)C=CC2=O)cc1C
  HCMV UL50-53 inh = -8&-10

Later entries.
SMILES | HCMV UL50-53 inh
COC(=O)c1ccc(CSc2nccc(=O)[nH]2)cc1 | -15
CC(C)c1cc(NCCN2CCOCC2)n2c(nc3ccccc32)c1C#N | -4
Clc1ccc(Cn2ncc3c(N4CCCCC4)ncnc32)cc1 | -9
COc1ccc(-c2cc(C(=O)Nc3cc(OC)cc(C(=O)Nc4cccc(C(F)(F)F)c4)c3)[nH]n2)cc1 | -17
O=S(=O)(/N=C/c1cc(Br)ccc1O)c1ccccc1 | 9
Cc1[nH]c2ccccc2c1SCC(=O)NCc1ccco1 | -4
Cc1cccc2c(C(=O)N3CCN(C)C(=O)C3C)cc(-c3cnc(N)nc3)nc12 (configuration not stated) | -21
CCCCCCCC/C=C\CCCCCCCCCCCCCC(=O)NCCS(=O)(=O)O | -36&-36
Cc1nc2sc(C(c3ccc(F)cc3)N3CCN(C)CC3)c(O)n2n1 (configuration not stated) | -17
O=C(c1cc(-c2cncnc2)nc2cc(F)ccc12)N1CCCC1Cc1cccnc1 (configuration not stated) | -32
O=C(NCc1ccccc1)c1ccc(C(=O)NCc2ccccc2)cc1 | -6
O=C(CSC1=NNC(c2ccccn2)S1)c1cccc(F)c1 (configuration not stated) | -25
O=C(c1ccccc1)C12CC3CC(CC(C3)C1)C2 | -15
COC1CCC(C(=O)c2ccc3nc4c(cc3c2)CCCO4)CC1 (configuration not stated) | -6
O=C(Nc1c(-c2ccccc2)nc2ccccn12)C1CCCCC1 | -7
Cc1nc(N)sc1-c1nnc(Nc2ccccc2)s1 | -28
Cc1ccc(C)n1C(CC(=O)O)c1ccc(F)cc1 (configuration not stated) | -5
C=CCc1cc(OC)c(O)c(C(=O)NCCO)c1 | -9
Cc1cccc(-n2cnc3cc(C(=O)N4CCOCC4)ccc32)c1 | -4
O=C(Oc1c(CN2CCOCC2)cc(Cl)c2cccnc12)c1ccc(Cl)cc1 | -6
COc1ccc(-n2nnnc2-c2ccc3ccccc3n2)cc1 | -13
CCCCC[C@H](O)/C=C/[C@@H]1[C@@H](CCCCCCCO)[C@@H](O)C[C@H]1O | -16&-16
O=C(CS(=O)(=O)c1cn(Cc2ccccc2Cl)c2ccccc12)N1CCCCC1 | -1
CC(C)n1cc(-c2cc(C(=O)N(C)Cc3ccncc3)c3ccc(F)cc3n2)cn1 | -16&-16
COc1ccc(CNc2nc(NCc3ccc(OC)cc3)c3ncn(C4CCCC4)c3n2)cc1 | -4
CC1CC(C)CN(C(=O)CN(C)S(=O)(=O)c2cc3c(cc2Cl)NC(=O)CO3)C1 (configuration not stated) | -1
CCCCCC(=O)/C=C/[C@H]1[C@H](O)CC(=O)[C@@H]1C/C=C\CCCC(=O)O | -16&-16
NC1(Cc2ccc(Cl)cc2)CCN(c2ncnc3[nH]ccc23)CC1 | 1
